Source: PubChem BioAssay
NPYLR7 agonist – activates Aedes aegypti NPYLR7 receptor | HEK293T NPYLR7/Galpha15, GCaMP6s calcium fluorescence | hit rate 0.15% among 270,000 | AID 1259423 | activation, % at 10 µM; in the data active means activation above about 40%;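 further: 0% = vehicle and 100% = reference agonist at the receptor; some compounds past the cut are filed as inactive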
NPYLR7 agonist max-min – second read-out of NPYLR7 agonist, no call of its own (marks repeat the call); activation, %; measured here: Max-Min RFU normalised activation; some inactives read as strong as hits;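 span of the calcium signal over five minutes; 0% = vehicle and 100% = native peptide agonist; compound fluorescence can raise it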
Active calls of the source: *; & = joins results of further samples.

item	smiles	NPYLR7 agonist	NPYLR7 agonist max-min
1	Cn1cc(C(=O)OC(C(N)=O)c2ccc(F)cc2)c2ccccc21 (stereo not given)	2	-3
2	CCCCCCCCC(=O)NCc1ccc(O)c(OC)c1	-5	-6
3	COc1cccc([C@@H]2CN(CCCn3ccnc3)[C@@H]3C4CCN(CC4)[C@@H]32)c1	4	-4
4	NCCc1c[nH]c2ccc(F)cc12	1	2
5	O=S(=O)(c1cccc(Br)c1)N1CCN(CCOC(c2ccccc2)c2cccc(C(F)(F)F)c2)CC1 (stereo not given)	1	-6
6	O=C(Nc1cccnc1)c1cccn(Cc2c(F)cccc2Cl)c1=O	13	3
7	C=C[C@H]1CN2CC[C@H]1C[C@@H]2[C@@H](OC(=O)OCC)c1ccnc2ccc(OC)cc12	0	-13
8	CC(C)(C)P(=S)(NC12CC3CC(CC(C3)C1)C2)C(C)(C)C	4	1
9	CN1CCN(C)C2(CCN(c3ccc4cccc(Cl)c4n3)CC2)C1	5	2
10	CC(=O)C1=C(C)OC(=N)C(C#N)C12C(=O)Nc1ccccc12 (stereo not given)	7	9
11	N=C1c2ccccc2CN1Cc1ccccc1	-1	11
12	COC(=O)c1ccccc1NC(=O)c1cccn(Cc2ccccc2)c1=O	15	7
13	CNCC(O)c1ccc(O)cc1 (stereo not given)	0&10&4	-3&-5&-40
14	CC1CN(CC2CCCN2C(=O)Cc2c[nH]c3ccccc23)CC(C)O1 (stereo not given)	7	7
15	Cc1ccsc1C(=O)C1CCCN(Cc2cccn2-c2nccs2)C1 (stereo not given)	12	0
16	Cc1ccc(C(C)C)c(OC(=O)N(C)C)c1CN(C)C	-3	-5
17	CN(N=O)c1ccc(O)c(O)c1	3	-15
18	Cc1noc(C)c1CN(C)C(=O)C(=O)Nc1ccc(C#N)c(Cl)c1	1	4
19	O=C1C(C(c2ccccc2)N2CC3CC(C2)c2cccc(=O)n2C3)Sc2ncnn21 (stereo not given)	9	7
20	O=C1CNC(c2ccccc2Cl)c2cc(Br)ccc2N1 (stereo not given)	-3	-4
21	O=[N+]([O-])c1cccc(S(=O)(=O)N2CCN(CCOC(c3ccccc3)c3cccc(C(F)(F)F)c3)CC2)c1 (stereo not given)	27	29
22	CN1CC(=O)N(Cc2ccc(Cn3nc(C(=O)NCCCN4CCCC4=O)c4ccccc43)cc2)c2ccccc2C1=O	-4	-10
23	C=C(C)CN1CC[C@]23c4c5ccc(O)c4O[C@H]2c2[nH]c4ccccc4c2C[C@@]3(O)C1C5	-2	-7
24	CC1(C)CN=C(Nc2ccc(F)c(F)c2)S1	17	7

Reformatted with values under each structure: five of the compounds above
Results follow in this order: NPYLR7 agonist	NPYLR7 agonist max-min
10: CC(=O)C1=C(C)OC(=N)C(C#N)C12C(=O)Nc1ccccc12 (stereo not given)
    7	9
18: Cc1noc(C)c1CN(C)C(=O)C(=O)Nc1ccc(C#N)c(Cl)c1
    1	4
13: CNCC(O)c1ccc(O)cc1 (stereo not given)
    0&10&4	-3&-5&-40
1: Cn1cc(C(=O)OC(C(N)=O)c2ccc(F)cc2)c2ccccc21 (stereo not given)
    2	-3
24: CC1(C)CN=C(Nc2ccc(F)c(F)c2)S1
    17	7

The listing picks up with the 4 entries that preceded the break.
item	smiles	NPYLR7 agonist	NPYLR7 agonist max-min
21	O=[N+]([O-])c1cccc(S(=O)(=O)N2CCN(CCOC(c3ccccc3)c3cccc(C(F)(F)F)c3)CC2)c1 (stereo not given)	27	29
22	CN1CC(=O)N(Cc2ccc(Cn3nc(C(=O)NCCCN4CCCC4=O)c4ccccc43)cc2)c2ccccc2C1=O	-4	-10
23	C=C(C)CN1CC[C@]23c4c5ccc(O)c4O[C@H]2c2[nH]c4ccccc4c2C[C@@]3(O)C1C5	-2	-7
24	CC1(C)CN=C(Nc2ccc(F)c(F)c2)S1	17	7
25	CC(C)(C)P(=S)(Nc1cccnc1)C(C)(C)C	6&0	3&0
26	CCN(CC)CCN(C(=O)Cc1ccccc1)c1nc2ccc(Cl)cc2s1	-7	-11
27	CCN(CC)C(C)C(=O)c1ccccc1 (stereo not given)	-13	-22
28	Cc1ccccc1CC(=O)N1CCN(Cc2cccc(-c3noc(-c4ccccc4)n3)c2)CC1	4	1
29	COc1ccccc1/C=C1\C(=O)NC(=S)N(c2ccccc2)C1=O	0	-3
30	NNCc1ccccc1	7	-4
31	CC(C)CC(C)NC(=O)C1CCCCC1C(=O)N1CCC(C#N)(c2ccccc2)CC1 (stereo not given)	-6	-15
32	COC(=O)c1ccc(CN2CCCC(C(=O)c3cccc(Cl)c3)C2)cc1 (stereo not given)	5	5
33	O=C(NCc1cccc(OC(F)F)c1)c1cn(CC2CCCNC2)nn1 (stereo not given)	25	12
34	O=c1c2ccccc2[nH]c(=S)n1CC1(N2CCCCC2)CCCCC1	4	3
35	O=C(c1ccc(Br)cc1)C12CN3CN(CN(C3)C1)C2	8	2
36	CC(C)c1c(C(=O)NC2CCCCCC2)cnn1Cc1ccccc1	1	4
37	O=C1NC(=O)c2c1c1c3ccccc3[nH]c1c1[nH]c3ccccc3c21	-15	-19
38	CC(C)Nc1nc(Cl)nc(NC(C)C)n1	-3	-10
39	Nc1c(Br)cc(Br)cc1Br	-1	-2
40	NC(=O)COc1c(F)cc(SCCNS(=O)(=O)c2ccccc2)cc1F	1	-22
41	c1cc2c(cc1CCNCc1ccc3c(c1)OCO3)OCO2	0	-1
42	Cc1nn(C(C)(C)C)c(C)c1C(=O)NCC1CCCCCCC1	-5	-7
43	CC(C)Oc1cccc(C(=O)C2CCCN(C3CSCCSC3)C2)c1 (stereo not given)	17	5
44	NS(=O)(=O)c1ccc(NC(=O)c2cccn(Cc3ccccc3F)c2=O)cc1	18	8
45	NNC(N)=O	5	-31
46	O=C(NCc1ccco1)c1nn(Cc2ccc(-c3ccccc3)cc2)c2ccccc12	15	15
47	O=P(C=C(Cl)c1ccccc1)(C=C(Cl)c1ccccc1)NCc1ccccc1	5	2
48	COc1ccc(C2SCC(=O)Nc3c2cnn3C)cc1OCc1ccccc1F (stereo not given)	0	45

Carrying on.
nr | SMILES | NPYLR7 agonist | NPYLR7 agonist max-min
49 | CC1CCCCC12NC(=O)N(CN1CC=C(c3ccccc3)CC1)C2=O (stereo not given) | 6 | 8
50 | CCN(CC)CC(=O)N(NC(=O)C(O)(c1ccc(C)cc1)c1ccc(C)cc1)c1ccccc1 | 1 | -8
51 | CCOC(=O)C1=C(CC)Nc2ccccc2N=C1NC(=O)c1cc(C)on1 | 3 | 1
52 | CCOP(=O)(OCC)C(NC(=O)c1cccs1)C(Cl)(Cl)Cl (stereo not given) | 6 | 0
53 | O=[N+]([O-])c1ccc(O)c(Cl)c1 | 6 | 4
54 | N#CCCN1CCC(C(O)(c2ccccc2)c2ccccc2)CC1 | 9 | 3
55 | O=[N+]([O-])O[C@H]1CO[C@H]2[C@@H]1OC[C@H]2O[N+](=O)[O-] | -8&-1 | -13&-6
56 | Clc1cc(I)cc(Cl)c1NC1=NCCN1 | 4 | -31
57 | C#CCN1C(=O)[C@@H]2[C@H](c3ccccc31)[C@@H](C(=O)OCC)[C@@H](c1ccccc1)N2C(=O)c1ccco1 | -1 | 7
58 | Clc1cncc(NC2CCN(C3CCCC3)C2)n1 (stereo not given) | 9 | 5
59 | Nc1ccc(S(=O)(=O)NC2CN3CCC2CC3)cc1 (stereo not given) | 6 | 5
60 | CCN1C(=O)C2(c3ccccc31)c1c(cc(C)n(C)c1=O)OC(=N)C2C(=O)OC (stereo not given) | 4 | 4
61 | O=C1NC(=S)N(c2ccccc2)C(=O)/C1=C/c1ccco1 | 4 | 4
62 | CC1CCc2c(sc3nc(C[N+]45CCN(CC4)CC5)[nH]c(=O)c23)C1 (stereo not given) | 11 | 18
63 | C1C[C@H]2CC[C@@H](CN1)N2C1CSCCSC1 | 3 | 2
64 | CCCNc1ncc(CN2C[C@H]3CC=CC[C@H]3C2)cn1 | 10 | 5
65 | ClC1C(Cl)C(Cl)C(Cl)C(Cl)C1Cl (stereo not given) | 2&-2 | -10&-11
66 | O=P(C=C(Cl)c1ccccc1)(/C=C(/Cl)c1ccccc1)N1CCOCC1 | 0 | -2
67 | CC(C)c1noc(CN2CCC3(CC2)C(=O)N(C)c2ccccc23)n1 | -2 | -3
68 | COc1ncc(CN2C[C@H]3C[C@H](O)[C@H](O)C[C@H]3C2)cn1 | 3 | 2
69 | COc1ccc2c3c1O[C@H]1C(=O)CC[C@@]4(O)C(C2)N(CC2CC2)CCC314 (stereo not given in full) | 5 | -39
70 | CCN(CC1CCOCC1)C1CCCNC1 (stereo not given) | 3 | 5
71 | CC1=C(C(=O)OC(C)(C)C)C2(C(=O)Nc3ccccc32)C(C(=O)OC(C)C)C(=N)O1 (stereo not given) | -4 | -4
72 | CN(c1ccccc1)S(=O)(=O)c1ccc(Cn2nc(C(=O)NCCCN3CCCC3=O)c3ccccc32)cc1 | 17 | 15
73 | CC(Cc1ccc(F)cc1)NC(=O)CC(C)C(C)C (stereo not given) | -7 | -8
74 | NC(=O)C(=O)N1CCCC2(CCNC2)C1 (stereo not given) | 4 | 1
75 | Cc1noc(C)c1CC(=O)N(CCN(C)C)C1CCCC1 | 8 | 4
76 | CCN1CCN(C(=S)N=P(c2ccccc2)(N(CC)CC)N(CC)CC)CC1 | 0 | -1
77 | O[C@@H]1C[C@H]2CN(C3CCN(c4ncccn4)CC3)C[C@H]2C[C@@H]1O | -1 | 2
78 | O=C(NC1CCCCCCC1)c1cn(Cc2ccccn2)cc(C(=O)N2CCc3ccccc3C2)c1=O | 7 | 5
79 | CNC(=O)[C@@H]1[C@H]2CN(C3COC3)CCN2C[C@H]1c1ccccc1 | 4 | 4
80 | O=C(CBr)c1cccc(F)c1 | -4 | -5
81 | C/C=C(\C)C(=O)N1CCN(CCOC(c2ccccc2)c2cccc(C(F)(F)F)c2)CC1 (stereo not given) | -14 | -11
82 | CC(=O)O.CC(=O)O.[Cd] | -9 | -14
83 | CCOP1(=O)Oc2ccccc2OCCOCCOCCOc2ccccc2O1 | 2 | 2
84 | CN1C(=O)N(C)C2C1N(C)C(=O)N2C (stereo not given) | 0 | 7
85 | CC12CCC(=O)C=C1CCC1C2CCC2(C)C(O)CCC12 (stereo not given) | 2 | -6
86 | CCOc1cc2c(cc1OCC)CNCC2 | 0&5 | -1&3
87 | CC(C(=O)Nc1ccc(Cl)cn1)N1CCN2C(=O)C(=O)NCC2C1 (stereo not given) | 0 | 1
88 | OCC12COC3c4ccccc4C(OC1)N32 (stereo not given) | -7 | -8
89 | NC(=O)N1CCC(NC(=O)CSC(c2ccccc2)c2ccc(Cl)cc2)C1 (stereo not given) | -1 | -11
90 | Cn1nc(C(C)(C)C)c2c1N(CC(=O)NC1CC1)C(=O)CSC2c1ccccc1F (stereo not given) | 32 | 31
91 | Cc1cc(Cn2cc(Br)ccc2=N)c2ncccc2c1 | 3 | 5
92 | O=C(Nc1ccncc1)c1cccn(Cc2ccccc2)c1=O | 15 | 8
93 | CC1(C)C2C[C@@H](O)[C@]3(C)C(CC[C@@]4(C)[C@H](c5ccoc5)C[C@H]5O[C@]543)[C@@]2(C)[C@@H](O)C[C@H]1O (stereo not given in full) | 7 | 5
94 | COc1ccc(-n2c(-c3ccc(C)cc3C)nc3ccccc3c2=O)cc1 | 2 | 0
95 | CCOC(=O)[C@@H]1[C@H]2c3ccccc3N(C)C(=O)[C@H]2N(C(=O)NCc2ccccc2)[C@@H]1c1ccccc1 | 2 | 11
96 | CC(C)(C)c1nn(C(C)(C)C)c2c1C(c1ccc3c(c1)OCO3)SCC(=O)N2CC(=O)N1CCCC1 (stereo not given) | 16 | 5
97 | CC(CCc1ccccc1)NC(C)C(O)c1ccc(O)cc1 (stereo not given) | -3&0&5 | -9&-5&-19
98 | C=Cn1ccnc1P(=S)(c1c(C)nn(-c2ccccc2)c1C)c1nccn1C=C | 13 | 11
99 | CCOC(=O)CN1C(=O)[C@@H]2[C@H](c3ccccc31)[C@@H](C(=O)OCC)[C@@H](c1ccccc1)N2C(=O)C1CC1 | 19 | 28
100 | O=C(Cc1ccccc1)N1CCCC(N2CCN(c3ccccc3)CC2)C1 (stereo not given) | -3 | -4
101 | NCCc1cccc(OCCCc2ccccc2)c1 | 5 | 4
102 | O=C1OCCC1N1CC=C(c2c[nH]c3ccccc23)CC1 (stereo not given) | 5 | 2
103 | CCN1C(=O)C(=C2C=C(C)OC(C)=C2)C(=O)N(CC)C1=S | 4 | 1
104 | CC(=O)OC1(Cc2ccccc2)CN2CCC1c1ccccc12 (stereo not given) | 2 | 1
105 | O=C(O)C(Cc1cnc[nH]1)N1C(=O)c2ccccc2C1=O (stereo not given) | 4 | 2
106 | COc1ccc(CC(=O)N2CCN(C(c3ccccc3)c3ccc(Br)cc3)CC2)cc1 (stereo not given) | -4 | 3
107 | O=C1C2CCN(CC2)C1Cc1c(O)c2ccccc2oc1=O (stereo not given) | -4 | -7
108 | O=C1CCCN1CC(=O)N1CCC2(CCCNC2)C1 (stereo not given) | 1 | 25

Next section:
nr | SMILES | NPYLR7 agonist | NPYLR7 agonist max-min
109 | NCCc1nc(NCC2CC2)c2ccccc2n1 | 1 | -1
110 | CN(C)C1CCNCC1 | 5 | 1
111 | O=C(O)COc1ccc(CN2CCN(CCOC(c3ccc(F)cc3)c3ccc(F)cc3)CC2)cc1 | 3 | 6
112 | Cc1ccccc1NC(=O)c1cn(Cc2ccccc2)nn1 | 7 | 3
113 | Cn1cnc([N+](=O)[O-])c1Sc1ccc([N+](=O)[O-])cc1 | 1 | 0
114 | Cc1nn2c3cc(N4CCNCC4)ccc3nc2c2ccccc12 | 5 | 4
115 | CC(Cc1ccccc1F)NCc1ccc(C(=O)N2CCCC2)cc1 (stereo not given) | -4 | -6
116 | CCN[C@H](C)Cc1cccc(C(F)(F)F)c1 | -37 | -45
117 | CC1CN(c2ccccc2[N+](=O)[O-])CCN1 (stereo not given) | 0 | -2

This is a subset; count on the stated rates, not on these rows.
